From PubChem
Tg IFNy HTS = T. gondii growth inhibition with IFN-gamma, primary screen, cell-based | activity change, negative = inhibition, %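 (about 20 µM by stock and volumes)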 | Toxoplasma gondii growth in IFN-gamma-treated host cells; hits give low values; reference of the scale not given here | 69,000 compounds, 3.8% hits | AID 1259416, 2018;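 active = below -70%; inconclusive = fit judged invalid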;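 note: host cells are HeLa cells infected with Toxoplasma gondii; parasite growth read as luciferase light; one replicate is shown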
An asterisk follows results filed as active; i = inactive; u = inconclusive; & = joins results of further samples; ! = repeats disagree.

entry	compound	Tg IFNy HTS
1	Cc1ccc(NC(=O)Nc2ccc(-c3nc(-c4ccc(C)cc4C)co3)cc2)cc1	15
2	O=S(=O)(c1ccccc1F)N1CCC(c2nc(-c3ccncc3)n[nH]2)CC1	-24
3	COCC#Cc1ccc2c(c1)O[C@@H](CN(C)C(=O)C1CCOCC1)[C@@H](C)CN([C@H](C)CO)S2(=O)=O	72
4	c1ccc(CNc2cc(-c3nccc4occc34)c3cc[nH]c3n2)nc1	12
5	Cc1ccc(NC(=O)c2nnn(Cc3nc(-c4ccc(OC(C)C)cc4)oc3C)c2C)c(C)c1	-98*
6	CC(=O)Nc1ccc(-c2nccn2CCc2cccc(F)c2)cc1	-45
7	Cc1ccc(-c2ccccc2NC(=O)CS(=O)CC(=O)Nc2ccc(C)c(Cl)c2)o1 (stereo unspecified)	33
8	CCOC(=O)C1NN=C(C(=O)c2ccccc2)C1c1ccc(Cl)cc1 (stereo unspecified)	-12
9	COc1ccc(-c2nc3c(s2)CN(C(=O)Nc2ccccc2C(F)(F)F)CC3)cc1	183
10	O=C(NCc1cccc(F)c1)Nc1ccc(-c2nc(-c3ccccc3)co2)cc1	21
11	CN(C)CCCNC(=O)C[C@H]1CC[C@H]2[C@@H](COC[C@@H](O)CN2CC2CC2)O1	-10
12	Cc1ccc(S(=O)(=O)NCCc2csc(-c3ccc(Cl)cc3)n2)cc1	-65
13	CCOc1ccccc1-c1nc(Cn2nnc(C(=O)Nc3cc(F)ccc3C)c2C)c(C)o1	345
14	Cc1cccc(C2=NC3(CCN(C(=O)Cc4nc(C)sc4C)CC3)C(=O)N2)c1	8
15	Cc1cnc(C(=O)N2C[C@@H]3COC[C@@]3(CNS(C)(=O)=O)C2)cn1	-1
16	O=C1C[C@H]2CC[C@@H](CN1)N2C(=O)COc1ncnc2ccccc12	-15
17	Cc1ccc(-c2ncc(Cl)cc2-c2ccc(S(C)(=O)=O)cc2)cn1	2&11
18	Cc1ccc(Nc2ncnc3c2cnn3-c2cccc(C)c2)cc1	30
19	O=C(c1csnn1)N1CCC2(CC1)CN(CCO)c1ccccc12	-2
20	N#C[C@@H]1[C@H](c2ccccc2-c2ccccc2)[C@@H](CO)N1C(=O)Cc1ccncc1	11
21	Cc1ccc(S(=O)(=O)NCCc2sc(-c3cccc(F)c3)nc2C)s1	28
22	CC(C)c1cc(C2CCN(C(=O)c3nc(C(C)C)cs3)CC2)[nH]n1	88
23	C=CC(=O)N1CCCC(c2nc(CCNC(C)=O)cs2)C1 (stereo unspecified)	15
24	Cc1ccc(-n2nnc(-c3ccc(Cl)cc3)n2)cc1	405
25	O=C(NCCc1csc(-c2ccccc2)n1)C1CCN(S(=O)(=O)c2ccccc2)CC1	6
26	Cc1ccccc1OCC1CCCN(C(=O)C2CCCN(CCc3ccccn3)C2)C1 (stereo unspecified)	11
27	Cc1cc2c(cc1O)NC(=O)CC2c1cc(C(C)(C)C)n[nH]1 (stereo unspecified)	-5
28	CS(=O)(=O)c1ccc(-c2ccccc2C(N)=O)cc1	3
29	Cc1c(C(=O)N2CCCC(c3cnccn3)C2)oc2c(F)cccc12 (stereo unspecified)	-51
30	CO[C@H](CN(C)C(=O)c1ccccc1F)[C@@H](C)CN([C@H](C)CO)S(=O)(=O)c1ccc(F)cc1	-22
31	Cn1ccnc1-c1ccc(NCC[C@@H]2C[C@@H]3C=C[C@H]2C3)nn1	463
32	Cc1cc(C)c(-n2cccn2)c(-c2nccn2CCN2CCOC2=O)c1	-3
33	COc1ccc(C(=O)NCCc2sc(-c3ccc(Cl)cc3)nc2C)cc1	-76*
34	COc1ccc(CC(=O)N2CCC3(CC2)Nc2ccc(C)c(C)c2-n2cccc23)cc1	68
35	CC(C)(C)c1ccc(OCc2nc(Nc3ccccc3Cl)cc(=O)[nH]2)cc1	7
36	Cc1cc(C)c(S(=O)(=O)N2CCC3(CC2)Nc2ccccc2-n2cccc23)c(C)c1	40
37	COc1ccc(C(NC(=O)c2oc3c(C)cccc3c2C)c2ccncc2)cc1 (stereo unspecified)	-50
38	Cn1cc(N2CCC3(CCN(Cc4ccc(F)cc4)CC3)C2=O)cn1	166
39	CN1CCn2c(-c3cnn(C)c3)cnc2C12CCN(CC1CC1)CC2	5
40	COc1ccc(CNC2=NCCNC23CCN(S(=O)(=O)c2ccc4c(c2)CCCC4)CC3)cc1	-8
41	Cc1ccc(Nc2nc(C(=O)NC(C)Cc3ccco3)nc3ccccc23)cc1 (stereo unspecified)	-46
42	Cc1ccc(CN2CC[C@H]3CO[C@@H](CNC(=O)C4CC4)[C@@H]3C2)cc1	-45
43	CCOc1ccc2oc(=O)cc(CN3CCN(Cc4nc(-c5ccc(C)cc5)oc4C)CC3)c2c1	7
44	CNC(=O)c1cc(=O)n(CC(=O)Nc2cc(C(F)(F)F)ccc2Cl)c2ccccc12	16
45	Cc1ccc(-c2coc(-c3ccc(NC(=O)Nc4cc(F)ccc4F)cc3)n2)c(C)c1	13
46	COc1ccccc1NC(=O)NCC(c1cccnc1)c1cn(C)c2ccccc12 (stereo unspecified)	i
47	CCn1ncc(C(=O)N(C)Cc2nc3cc(C)c(C)cc3[nH]2)c1C	7
48	COc1ccc(-c2nc3c(s2)CN(S(=O)(=O)c2cccc(Cl)c2C)CC3)cc1	-95*
49	Cc1nnsc1CN(C)Cc1cccn1S(=O)(=O)c1ccccc1	-4
50	COc1cccc(S(=O)(=O)N2C[C@H](O)COC[C@H]3O[C@H](CC(=O)NCCCN4CCOCC4)CC[C@@H]32)c1	11
51	CC(C)c1nccc(CN(C)Cc2cc(-c3ccccc3)no2)n1	2
52	CCc1c(C(=O)NC(C)c2ncnn2CC)csc1C (stereo unspecified)	2
53	CCOC(=O)c1c(-c2ccco2)csc1N	151
54	COc1cc2nc(-c3ccccc3)nc(N3CCCC3)c2cc1OC	-9
55	Cc1cc(NC(=O)NC(=O)c2csnn2)no1	-4
56	Cn1c(C(=O)Nc2ccccc2CN2CCCCCC2)cc(=O)n(C)c1=O	19
57	O=C(c1cccnc1)N1CCC(F)(F)C2(CCN(Cc3ccccn3)C2)C1 (stereo unspecified)	-13
58	Cc1ccc(C(=O)N(Cc2ccccn2)CC(C)C)cc1N1CCNC1=O	-19
59	O=C(O)c1c2c(nc3ccc(F)cc13)CCC2	2
60	Cn1cccc1C(=O)N1CC2(CCN(c3ncccn3)C2)C1	0

The list goes on, starting with the last 2 of the part before.
entry	compound	Tg IFNy HTS
59	O=C(O)c1c2c(nc3ccc(F)cc13)CCC2	2
60	Cn1cccc1C(=O)N1CC2(CCN(c3ncccn3)C2)C1	0
61	CN(C)C1CC2(CCN(C(=O)c3csnn3)CC2)c2ccccc21 (stereo unspecified)	-1
62	Cc1nc(C(=O)N2CCC(CC(=O)O)CC2)co1	-7
63	CCN1Cc2ccccc2CC1C(=O)O (stereo unspecified)	2
64	Cc1ccc(S(=O)(=O)NC(C(=O)Oc2cc3oc(=O)cc(C)c3cc2Cl)C(C)C)cc1 (stereo unspecified)	46
65	COc1ccccc1CNC(=O)C1=C(C)C(=O)OC12CCN(S(C)(=O)=O)CC2	40
66	COc1ccc(CCNS(=O)(=O)c2cc3c4c(c2)CCC(=O)N4CCC3)cc1OC	65
67	O=C(NCCCN1CCOCC1)c1csc(-c2ccc(N3CCCC3)nc2)n1	-1
68	COCCN1CC2(CCN(C(=O)C3=CCCC3)CC2)CC1COC (stereo unspecified)	-5
69	Cc1ccc(CNCC2Cn3nncc3CO2)o1 (stereo unspecified)	29
70	COc1ccc(N2CCN(Cc3ccnc(-c4ccncc4)n3)CC2)cc1	41
71	N#Cc1cccc(OC[C@@H]2CO[C@@H]3CN(c4cnccn4)C[C@@H]23)c1	-66
72	CCN1c2cc(C)ccc2-n2cccc2C12CCN(C(=O)Nc1ccccc1F)CC2	u
73	CC(=O)NCC1=CCCN(CC(=O)NC(C)c2ccc(C)cc2)C1 (stereo unspecified)	16
74	CCN(CC)c1ncnc2c1cnn2CC(=O)NCc1ccc(F)cc1F	-104*
75	COc1ccc(S(=O)(=O)NCc2ccccc2-n2ccnc2)cc1NC(C)=O	-7
76	CCS(=O)(=O)N1CCCC2(CC(N(C)Cc3ccccn3)CO2)C1 (stereo unspecified)	0
77	Cc1cccc(-c2noc(-c3c(O)c4ccc(F)cc4[nH]c3=O)n2)c1	26
78	CN1c2ccc(Br)cc2[C@H]2[C@H](CCN2C(=O)Nc2cccc(F)c2)[C@@H]1CO	18
79	C[C@@H]1CN([C@H](C)CO)C(=O)c2c(c3ccccc3n2C)-c2ccccc2CO[C@H]1CN(C)C(=O)[C@@H](Cc1ccccc1)N(C)C	-51
80	COc1cc(C(=O)Nc2ccc(-c3nc(-c4cc(C)ccc4C)co3)cc2)cc(OC)c1OC	-32
81	C#Cc1cccc(Nc2ncnc3cc4c(cc23)OCCOCCOCCO4)c1	-4
82	CCc1cnc(N2[C@@H](C#N)[C@H](c3ccc(C#Cc4ccccc4F)cc3)[C@@H]2CO)s1	-40
83	Cc1nc(-c2ccc(Cl)cc2)sc1CCNC(=O)c1ccc(F)c(F)c1	-77*
84	Cc1noc(C)c1NC(=O)c1ccc(CN2CCc3ccccc3C2)cc1	-7
85	CC(C)OC[C@H]1CCC[C@]12CN(C(=O)N1CCCC1)CCO2	71
86	C=CCNc1ncnc2c1cnn2-c1ccc(C)cc1C	11
87	O=C(NCC1CCC(C(=O)NCCN2CCc3ccccc32)CC1)c1ccccc1F (stereo unspecified)	11
88	O=C(NCC1CCC(c2ccnc3nc(C(F)(F)F)nn23)CC1)c1ccccn1 (stereo unspecified)	32
89	Cc1cc2c(cc3c(=O)n(CCC#N)nc(C)n32)s1	-91*
90	COc1ccc(-c2nc(C)c(CCNC(=O)C(=O)Nc3cccc(Cl)c3)s2)cc1OC	i
91	C=CCN1CCN(C(=O)C2CCCO2)CC(Cc2ccc(-c3ccncc3)cc2)C1=O (stereo unspecified)	-24
92	COc1ccc2c(c1)NC1(CCN(C(=O)COc3ccc(F)cc3)CC1)c1cccn1-2	59
93	CCC(=O)Nc1c(C)ccc2nsnc12	8
94	COc1ccc(CCNC(=O)C(=O)Nc2ccc3c(c2)OCO3)cc1OC	2
95	COc1ccc(C(NC(=O)c2c(O)cccc2O)c2ccncc2)cc1 (stereo unspecified)	-1
96	COc1ccccc1N1CCN(C(=O)c2cccs2)CC1	7
97	Cc1nc2n(Cc3ccccc3)c3ccccc3n2c1C(=S)Nc1ccccc1	-114*
98	Cc1cccc(CN2CCN(Cc3cccc4cnccc34)CC2)c1	-10
99	Cc1nc(CN2C[C@@H]3CN(C(=O)C4(C#N)CC4)C[C@H]3C2=O)cs1	4
100	CO[C@H]1/C=C\C=C(/C)C(=O)NC2=CC(=O)C(NCCN(C)C)=C(C[C@@H](C)C[C@H](OC)[C@H](O)[C@@H](C)/C=C(\C)[C@@H]1OC(N)=O)C2=O	-82*!
101	O=C(CCn1nnc2ccccc21)Nc1nnc(COc2ccc(F)cc2)s1	-69
102	Cc1ccccc1NC(=O)CN1C(=O)CCc2cc(S(=O)(=O)N3CCCCC3C)ccc21 (stereo unspecified)	38
103	CCCC(=O)Nc1ccc2c(c1)C(=O)N(C)[C@@H]1CC[C@@H](CC(=O)N3CCCCC3)O[C@H]1CO2	-8
104	Cc1ccc(C2(O)CCN(Cc3cc4c(cc3Cl)OCO4)CC2)nc1	-1
105	CN(C)C(=O)c1cccc(-c2ccc(C3[C@H]4CNC[C@@H]3N4S(=O)(=O)Cc3ccccc3)cc2)c1 (stereo partly specified)	-13
106	COc1ccc2c(CN3CCCCC3c3ccccn3)[nH]nc2c1 (stereo unspecified)	-12
107	CCOCC12CCCOC1CCN(C(=O)c1ccncc1)C2 (stereo unspecified)	-3
108	Cc1nc(Cn2nc(C3CCNCC3)n(Cc3ccccc3)c2=O)no1	1
109	CCCCOc1ccccc1C(=O)N1CCCC2(CN(C)C(=O)O2)C1 (stereo unspecified)	-1
110	Clc1ccccc1-c1nc(NCCCN2CCN(c3ccccc3)CC2)c2ccccc2n1	-46
111	CN(C)CC1(O)CCN(C(=O)C2CCN(C(=O)c3ccncc3)CC2)C1 (stereo unspecified)	-3
112	CCN(CC)S(=O)(=O)c1ccc(OC)c(NC(=O)Cc2cccs2)c1	2
113	COCCN1CC(c2ccccc2)OC2(CCN(C(=O)C(C)(C)C)CC2)C1 (stereo unspecified)	30
114	CC(Cc1cnccn1)NC(=O)c1cccc(CC2CCNCC2)c1 (stereo unspecified)	-5
115	C[C@H](CO)N1C[C@H](C)[C@H](CN(C)Cc2ccc(C(=O)Nc3ccccc3N)cc2)OCc2cnnn2CCCC1=O	163
116	CNC[C@@H]1Oc2ccc(NS(=O)(=O)c3ccc(OC)cc3)cc2C(=O)N([C@H](C)CO)C[C@H]1C	-49
117	CC[n+]1c(C)sc2cc(C)ccc21	-17
118	N#Cc1cccc(NC(=O)Cn2c(=O)cc(C(=O)N3CCCC3)c3ccccc32)c1	8
119	CC(C)c1nccn1C(C)C(=O)NCCS(=O)(=O)N1CCCC1 (stereo unspecified)	2
120	CCCc1oncc1C(=O)N1CCCC2(CNC(=O)O2)C1 (stereo unspecified)	-18

Gathered by group, the entries above with an NH in an aromatic ring
entry	compound	Tg IFNy HTS
2	O=S(=O)(c1ccccc1F)N1CCC(c2nc(-c3ccncc3)n[nH]2)CC1	-24
4	c1ccc(CNc2cc(-c3nccc4occc34)c3cc[nH]c3n2)nc1	12
22	CC(C)c1cc(C2CCN(C(=O)c3nc(C(C)C)cs3)CC2)[nH]n1	88
27	Cc1cc2c(cc1O)NC(=O)CC2c1cc(C(C)(C)C)n[nH]1 (stereo unspecified)	-5
35	CC(C)(C)c1ccc(OCc2nc(Nc3ccccc3Cl)cc(=O)[nH]2)cc1	7
47	CCn1ncc(C(=O)N(C)Cc2nc3cc(C)c(C)cc3[nH]2)c1C	7
77	Cc1cccc(-c2noc(-c3c(O)c4ccc(F)cc4[nH]c3=O)n2)c1	26
106	COc1ccc2c(CN3CCCCC3c3ccccn3)[nH]nc2c1 (stereo unspecified)	-12

These rows are one share of the data (hit frequency here may not be typical).
